# Bioassay records as filed in PubChem.
# D2 ag = human D2 receptor agonism in beta-arrestin assay; P14416; DiscoveRx PathHunter D2 beta-arrestin, luminescence, 90 min; 100% = 57 uM dopamine signal; activation, % (no concentration beside the values); 0.084% of 360,000 active; in the data active = activation above about 40%; inconclusive = about 15% to 40%; inactive = below about 15%; also: compound concentration not given in the record; the text of the record calls up to 30% inactive
#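 Agonist mode: compounds alone added to overnight-plated D2 PathHunter cells for 90 min at 37 C, with 57 uM final dopamine (EC100) defining full response. Beta-arrestin recruitment detected by chemiluminescent reagent, read after 1 h at ambient temperature.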
# CtBP-E1A blk = blocks the CtBP interaction with E1A | AlphaScreen GST-E1A/His-CtBP binding, 1536-well; hits give low values; control for the full effect not named in the record | activity change, % (concentration not given with the values) | 0.49% of 340,000 active; in the data active means activity change below about -65%; inconclusive means about -30% to -65%; inactive means above about -30%; also: % is scaled to controls: 0 for no effect and ±100 for the full control effect
#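 GST-E1A and His-tagged CtBP (125 nM each as 5X stock) were preincubated with pin-transferred compound for 2 h at 37 °C in the dark, then glutathione donor and nickel acceptor beads were added for 1 h before AlphaScreen reading.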
# PINK1 expr mod = changes PINK1 expression; AID 624263; PINK1 immunofluorescence, high-content cytometry, 24 h; Potency, µM (series often up to 76.6 µM), for inactives: top-dose activation (PINK1 increase), actives largely listed as activators; 0.2% of 410,000 active; active = well fitted activation curve with a large enough effect; inconclusive = small, poorly fitted or top-dose-only effect; inactive = flat fitted curve, though single readings scatter; cell line not stated here;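 also: potency is read from the fitted curve at half-maximal effect; % of control where 0% means no effect; nearly all actives have a fitted effect of over 65% in size; a mitochondrial uncoupler was the plate control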
#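 A stable cell line was treated with compounds at 5 concentrations for 24 hours, with CCCP as control. PINK1 levels and mitochondrial localization were measured by immunofluorescence with mitochondrial, cell and nuclear markers after fixation, read by laser-scanning cytometry.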
# TRPV1 PAM = enhances activation of the human vanilloid receptor TRPV1; 0.02% of 320,000 active; potentiation, % at 8.33 µM; AID 540277; TRPV1-expressing cells, Fluo-8 calcium influx, capsaicin EC20 potentiation; host cell line not named in the record; control for the full effect not named in the record; active means potentiation above 80%; inconclusive means 30% to 80%; inactive means below 30%; also: 0% is about no effect
# Target sequence (Q8NER1 whole entry, looked up): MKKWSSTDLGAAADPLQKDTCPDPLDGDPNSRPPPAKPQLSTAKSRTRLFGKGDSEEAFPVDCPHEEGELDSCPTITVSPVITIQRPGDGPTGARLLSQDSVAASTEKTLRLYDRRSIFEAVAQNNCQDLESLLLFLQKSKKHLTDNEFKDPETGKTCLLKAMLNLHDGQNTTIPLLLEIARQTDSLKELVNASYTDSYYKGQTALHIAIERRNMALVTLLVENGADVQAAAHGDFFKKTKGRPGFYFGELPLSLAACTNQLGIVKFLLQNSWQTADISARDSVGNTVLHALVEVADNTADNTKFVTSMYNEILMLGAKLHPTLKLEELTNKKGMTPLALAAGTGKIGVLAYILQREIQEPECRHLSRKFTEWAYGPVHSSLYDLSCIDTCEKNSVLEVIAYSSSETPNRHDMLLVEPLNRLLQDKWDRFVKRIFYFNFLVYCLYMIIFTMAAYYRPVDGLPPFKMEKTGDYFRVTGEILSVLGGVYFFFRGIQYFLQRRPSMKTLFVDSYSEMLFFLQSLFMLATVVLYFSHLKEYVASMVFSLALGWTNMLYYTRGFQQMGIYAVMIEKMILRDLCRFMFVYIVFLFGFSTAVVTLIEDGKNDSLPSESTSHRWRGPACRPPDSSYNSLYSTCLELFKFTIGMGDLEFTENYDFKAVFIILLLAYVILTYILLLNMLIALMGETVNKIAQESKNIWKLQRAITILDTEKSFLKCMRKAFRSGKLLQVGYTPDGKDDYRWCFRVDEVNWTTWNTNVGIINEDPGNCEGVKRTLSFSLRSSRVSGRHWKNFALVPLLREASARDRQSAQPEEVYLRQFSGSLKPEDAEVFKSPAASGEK
#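 Fluo-8 calcium influx in TRPV1-expressing cells, kinetic read (ex 480/em 520 nm). Compound added and read 3 min for agonist activity, followed by capsaicin at EC20 final and 2 min further read for enhancement.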
# D2 PAM = positive allosteric modulators of human D2 dopamine receptor | AID 624464 | potentiation, % (concentration not given with the values) | 0.23% of 360,000 active | DiscoveRx D2 beta-arrestin cells, luminescence, 90 min; 100% = 57 uM dopamine signal; active = potentiation of 50% or more; inconclusive = 30% to 50%; inactive = 30% or less;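 also: compound concentration not given in the record; tested on top of an EC20 dose of dopamine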
#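 PathHunter D2 cells, attached overnight at 37 deg C, received compound in DMSO plus dopamine at EC20 (50 nM final) for 90 min at 37 deg C. Beta-arrestin recruitment was read as luminescence after 1 h with detection reagent at ambient temperature.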
# Sfp PPTase inh = Sfp phosphopantetheinyl transferase inhibition; Q9F4F7; Biochemical Sfp PPTase activity, qHTS; 3.5% of 310,000 active; AID 1490; Potency, µM, for the others: max response, negative = inhibition, hits mostly inhibitors; active = well fitted inhibition curve with a large enough effect; inconclusive = small, poorly fitted or top-dose-only effect, or another doubt; inactive = no such curve, though single readings can be large or run the other way;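 also: the enzyme is Sfp with the accession as filed and its product quenches rhodamine fluorescence; potency is read from the fitted curve at half-maximal effect; 0% = enzyme reaction without inhibitor and -100% = no enzyme wells; top concentration of the series not given in the record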
#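 After 15 min at room temperature with compound, 15 nM Sfp received 5 uM rhodamine-CoA plus 12.5 uM BHQ-2-ybbR (50 mM Hepes pH 7.6, 10 mM MgCl2). Rate came from the fluorescence difference over 30 min, ex 525/em 598 nm.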
# Six1-Eya2 blk = Six1/Eya2 interaction inhibition; activity change, % (no concentration beside the values); Q15475+O00167; 0.56% of 360,000 active; AlphaScreen GST-Six1/His-Eya2 binding, biochemical; hits give low values; control for the full effect not named in the record; in the data active = activity change below about -65%; inconclusive = about -30% to -65%; inactive = above about -30%; also: % is scaled to controls: 0 for no effect and ±100 for the full control effect; compound concentration not given in the record
#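 Compounds are tested against tagged Six1 and Eya2 proteins bridged by glutathione donor and nickel acceptor beads; after a one-hour incubation at 37 °C without light, AlphaScreen emission is recorded.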
# The depositor's hits bear a star; ? = inconclusive; . = no result given; [ ] = remark or other dose. This is a random part of the collection. About 3.7% of those tested had a hit in this group.
SMILES,D2 ag,CtBP-E1A blk,PINK1 expr mod,TRPV1 PAM,D2 PAM,Sfp PPTase inh,Six1-Eya2 blk
COc1ccc(CCNC(=O)C(=O)NCc2ccc(C)cc2)cc1OC,0.6,-0.8,-2.6%[38.3 µM],4.1,-2.8,12.7%,4.7
COc1cccc(CCNC(=O)c2cc(COc3ccc(C)c(C)c3)on2)c1OC,1.4,-16.6,0.2%,.,-10.7,.,4.3
CCN(CC)CCN(C(=O)c1ccc(S(=O)(=O)N(C)C2CCCCC2)cc1)c1nc2ccc(OC)cc2s1,0.8,-0.6,1.6%,9.9,-11.1,5.1%,-2.0
Cc1cccc(NC(=S)NC(=O)CC2CC(C)(C)OC2=O)c1 (stereo not given),-7.2,.,1.5%,4.0,-6.9,11.2%,-0.4
O=C(Nc1ccc(Cc2ccncc2)cc1)C1CCC(N2C(=O)C3CC=CCC3C2=O)CC1 (stereo not given),1.6,10.2,.,1.6,-13.7,11.4%,-5.9
COc1ccc(-c2csc(NC(=O)Cn3nc(C)cc3C)n2)cc1,-1.4,-0.5,-1.9%,20.0,-2.0,4.3%,-2.0
COc1ccc2c(c1)CCc1c(C(=O)Nc3ccn(Cc4ccc(C)cc4)n3)noc1-2,2.8,4.1,?,5.0,0.8,-10.3%,0.5
CN(C(=O)CSc1nc2cc([N+](=O)[O-])ccc2n1-c1ccc(F)cc1)C1CCS(=O)(=O)C1 (stereo not given),-1.9,-0.1,7.0%,-4.9,-26.1,-0.8%,-0.1
CCOC(=O)N1CCN(C(=O)CCSCCc2ccncc2)CC1,2.7,-0.6,-1.1%,7.9,-4.4,5.8%,15.6
O=C(NCC(c1ccco1)N1CCN(c2ccccc2F)CC1)C(=O)NC1CC1 (stereo not given),1.6,-1.5,2.5%,-29.4,29.0,.,1.4
COc1ccccc1/C=C1\SC(=S)N(CCC(=O)N2CCN(C)CC2)C1=O,-1.1,12.7,6.9%,6.4,-17.3,-8.6%,-1.0
N#C/C(=C/c1ccc(N2CCOCC2)o1)c1ccc(Cl)cc1,2.2,-0.7,12.6µM*,19.6,3.7,0.708µM*,-9.4
COc1ccc(CC(=O)Nc2ccc(C(C)=O)cc2)cc1,0.1,-3.6,0.0%,0.5,-11.3,50.1µM*,6.7
Cc1sc2ccc3sccc3c2[n+]1C,-4.8,3.1,0.5%,-16.1,-11.2,2.82µM*,4.2
CCN(CC)S(=O)(=O)c1ccc(NC(=O)COc2c(OC)cccc2OC)cc1,-2.3,6.5,1.4%,11.4,6.5,10.3%,-2.8

# Some of the entries so far, with bars between the fields:
Structure | D2 ag | CtBP-E1A blk | PINK1 expr mod | TRPV1 PAM | D2 PAM | Sfp PPTase inh | Six1-Eya2 blk
Cc1sc2ccc3sccc3c2[n+]1C | -4.8 | 3.1 | 0.5% | -16.1 | -11.2 | 2.82µM* | 4.2
COc1ccc2c(c1)CCc1c(C(=O)Nc3ccn(Cc4ccc(C)cc4)n3)noc1-2 | 2.8 | 4.1 | ? | 5.0 | 0.8 | -10.3% | 0.5

# Continued.
SMILES,D2 ag,CtBP-E1A blk,PINK1 expr mod,TRPV1 PAM,D2 PAM,Sfp PPTase inh,Six1-Eya2 blk
COc1ccc(CN2CCN(C(C)C(=O)N(C)Cc3cccc(F)c3)CC2)cc1OC (stereo not given),-8.4,.,-0.1%,-13.2,-9.5,?,1.3
Cc1ccc(C)c(N2CCN(S(=O)(=O)c3ccc4[nH]c(=O)c(=O)[nH]c4c3)CC2)c1,2.2,-19.3,1.6%[38.3 µM],2.0,-0.4,-0.5%,-13.7
O=C(c1ccc(N2C(=O)C3C4c5ccccc5C(c5ccccc54)C3C2=O)cc1)N1CCOCC1 (stereo not given),-0.3,2.1,2.0%,-21.4,-0.8,-15.9%,0.0
C[n+]1ccccc1/C=C/c1cc(Br)ccc1O,-6.0,-3.9,0.5%,14.7,-4.9,1.5%,-6.3
C(=N\N1CCN(Cc2ccccc2)CC1)/c1ccc(-c2ccccc2)cc1,4.5,.,1.9%,2.8,0.2,5.8%,3.5
S=C(NCCc1ccccc1)N/N=C/c1cccs1,-1.8,.,-0.5%,.,-7.3,.,-11.4
Cc1cccc(C)c1OCC(=O)N/N=C/c1cccnc1,-2.8,2.6,1.7%,-4.4,-4.0,19.9%,5.3
CCC(O)c1cnc(OCc2ccccc2)nc1OCc1ccccc1 (stereo not given),-7.2,-2.3,9.0%,.,-9.9,.,1.4
COc1cccc(NC(=O)C(=O)c2cn(CC(=O)N3CCCC3)c3ccccc23)c1,2.3,-7.9,2.0%,0.3,16.2,7.3%,-2.7
COc1ccc2nc(C)cc(SCC(=O)NNC(=O)COc3ccccc3)c2c1,-3.8,-4.1,4.3%,.,-11.4,18.4%,-5.0
CC1CCN(C2CCN(C(=O)c3ccccc3F)CC2)CC1,-0.4,4.8,1.2%,-11.2,-10.0,-12.5%,-15.3
CCCCN1C(=O)c2ccc(C(=O)NC3=NCCS3)cc2C1=O,-7.5,-11.7,-0.7%,-7.4,1.4,13.0%,13.8
c1ccc2[nH]c(-c3nc4ccccc4[nH]3)nc2c1,1.7,-7.7,5.3%[38.3 µM],-2.7,-6.7,21.5%,-1.6
COc1ccc2cc(C(=O)/C=C/c3cc(OC)c(O)c(OC)c3)ccc2c1,-3.6,-1.5,-3.2%,1.0,-4.0,-29.8%,0.2
COC(=O)C1C(=O)CC(C)(O)C(C(=O)OC)C1/C=C/c1ccccc1 (stereo not given),-2.6,2.7,-0.1%,2.8,-4.1,10.4%,-2.4
O=C(CCc1nnc2n(Cc3ccccc3Cl)c(=O)c3ccccc3n12)NCCCN1CCOCC1,-0.7,.,2.5%,-1.0,-9.8,9.0%,-0.8
CCCCn1c(N)c(N(CC(C)C)C(=O)c2cccc(S(=O)(=O)N3CC(C)OC(C)C3)c2)c(=O)[nH]c1=O (stereo not given),0.5,3.7,1.5%,-1.4,-3.8,.,8.3
COc1cc(C(=O)Nc2ccccc2SCc2cc(=O)n3nc(C)sc3n2)cc(OC)c1OC,4.2,0.0,0.2%,-14.5,2.0,15.3%,-1.0
Cc1cc(C)n(C(=O)c2ccc(Cn3nc(C)c(Br)c3C)o2)n1,1.3,3.7,.,23.9,-2.1,7.7%,4.9
CC(C)Oc1ccc(OCCSc2nc3ccccc3n2CC(=O)O)cc1,-0.2,.,0.4%,6.5,25.4,-1.2%,16.2
Cc1ccc(Nc2nnc(C)c(=O)[nH]2)cc1,3.8,.,1.4%,-2.8,-4.6,5.4%,4.5
CC(/C=N/Nc1nc(C)cc(=O)[nH]1)=C\c1ccccc1,0.7,-4.3,12.6%,-13.8,1.0,-0.8%,10.7
CCC(=O)OCc1cc(=O)oc2ccc3ccccc3c12,1.6,6.8,-1.2%,-9.1,-1.8,1.5%,0.6
Cc1ccc(C(=O)NC(c2ccccc2)C(Cl)Cl)cc1 (stereo not given),0.9,1.1,0.2%,-7.7,-8.1,-9.0%,2.3
O=C(CN1CCN(C(=O)CCC(=O)N2CCC(c3ccccc3)=N2)CC1)Nc1cccc(F)c1,-0.1,-1.5,-1.2%,.,-8.9,.,-3.1
COc1ccccc1C1Nc2cccc3cccc(c23)N1,4.2,-16.6,12.2%,6.6,-0.6,56.2µM*,-24.0
COC(=O)c1cc(S(=O)(=O)N2CCOCC2)ccc1Sc1ccccc1N,-0.8,-10.5,3.2%[38.3 µM],-1.5,3.6,-21.2%,-6.6
CNC(=S)N(Cc1ccc(OC)cc1)Cc1cc2cccc(C)c2[nH]c1=O,3.5,.,3.9%,-1.6,-3.3,5.7%,-4.6
CCn1c(CNc2ccccc2Cl)nnc1SCC(=O)NCc1ccccc1,-0.9,5.3,.,6.9,-2.8,9.5%,1.6
CC(=O)Oc1ccc(N(c2ccccc2)S(=O)(=O)c2ccc(C)cc2)cc1,-2.7,8.1,2.1%,-1.0,-3.7,4.3%,1.5

# Some entries already given with just CtBP-E1A blk, Sfp PPTase inh and D2 ag:
canonical_smiles	CtBP-E1A blk	Sfp PPTase inh	D2 ag
COc1cccc(CCNC(=O)c2cc(COc3ccc(C)c(C)c3)on2)c1OC	-16.6	.	1.4
CCN(CC)CCN(C(=O)c1ccc(S(=O)(=O)N(C)C2CCCCC2)cc1)c1nc2ccc(OC)cc2s1	-0.6	5.1%	0.8
Cc1cccc(NC(=S)NC(=O)CC2CC(C)(C)OC2=O)c1 (stereo not given)	.	11.2%	-7.2
O=C(Nc1ccc(Cc2ccncc2)cc1)C1CCC(N2C(=O)C3CC=CCC3C2=O)CC1 (stereo not given)	10.2	11.4%	1.6
COc1ccc(-c2csc(NC(=O)Cn3nc(C)cc3C)n2)cc1	-0.5	4.3%	-1.4

# (more compounds)
SMILES,D2 ag,CtBP-E1A blk,PINK1 expr mod,TRPV1 PAM,D2 PAM,Sfp PPTase inh,Six1-Eya2 blk
COC(=O)Cc1ccc(NC(=S)N2CCN(c3ccc(F)cc3)CC2)cc1,3.2,3.8,12.9%,-37.4,-5.3,?,-3.2
CN(C)c1ccc(-c2csc(C(C)(O)c3ccccc3)n2)cc1 (stereo not given),10.1,?,11.2%,.,-10.9,.,?
CC(C)CNC(=O)C1(C)CCCN1C(=O)c1cccnc1 (stereo not given),2.5,5.7,0.5%,.,-3.7,.,2.9
CCCN(C(=O)COC(=O)CSc1ccc(C(N)=O)cc1[N+](=O)[O-])C1CCS(=O)(=O)C1 (stereo not given),-1.2,0.0,4.6%,-7.6,0.9,.,1.7
O=C(CNC(=O)C1CCCCC1)NCc1ccco1,5.5,-4.2,1.3%,3.6,-0.8,6.4%,-7.8
O=S(=O)(O)c1cc(O)c(N=Nc2ccc(O)cc2O)c2ccccc12,-10.3,-93.5*,-1.8%,.,-16.0,.,-83.5*

# Single records (already shown).
# `COC(=O)Cc1ccc(NC(=S)N2CCN(c3ccc(F)cc3)CC2)cc1` is listed with D2 ag: 3.2; CtBP-E1A blk: 3.8; PINK1 expr mod: 12.9%; TRPV1 PAM: -37.4; D2 PAM: -5.3; Sfp PPTase inh: ?; Six1-Eya2 blk: -3.2
# `CC(C)CNC(=O)C1(C)CCCN1C(=O)c1cccnc1` (stereo not given) is listed with D2 ag: 2.5; CtBP-E1A blk: 5.7; PINK1 expr mod: 0.5%; TRPV1 PAM: .; D2 PAM: -3.7; Sfp PPTase inh: .; Six1-Eya2 blk: 2.9
# `O=S(=O)(O)c1cc(O)c(N=Nc2ccc(O)cc2O)c2ccccc12` is listed with D2 ag: -10.3; CtBP-E1A blk: -93.5*; PINK1 expr mod: -1.8%; TRPV1 PAM: .; D2 PAM: -16.0; Sfp PPTase inh: .; Six1-Eya2 blk: -83.5*
